# GIV Gai3 FP: inhibitors of GIV peptide binding to Galpha-i3, primary screen, biochemical, fluorescence polarization, FITC-GIV GBA peptide, rat Galphai3. Guanine nucleotide-binding protein G(i) subunit alpha-3 (Rattus norvegicus), P08753. 90 min; active compounds read low; scaled: aluminum fluoride 0%, vehicle 100%. percent of control (FP), % (test concentration not listed). 210,000 compounds, 0.42% hits. AID 1224905, 2016;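 active = replicate mean at 85% of control or lower, very high polarization wells dropped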;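 also: lower values mean more displacement of the GIV peptide from Galpha-i3; wells of about 15 µL received 100 nL stock; the first replicate is given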
# Target sequence (P08753 whole entry, looked up): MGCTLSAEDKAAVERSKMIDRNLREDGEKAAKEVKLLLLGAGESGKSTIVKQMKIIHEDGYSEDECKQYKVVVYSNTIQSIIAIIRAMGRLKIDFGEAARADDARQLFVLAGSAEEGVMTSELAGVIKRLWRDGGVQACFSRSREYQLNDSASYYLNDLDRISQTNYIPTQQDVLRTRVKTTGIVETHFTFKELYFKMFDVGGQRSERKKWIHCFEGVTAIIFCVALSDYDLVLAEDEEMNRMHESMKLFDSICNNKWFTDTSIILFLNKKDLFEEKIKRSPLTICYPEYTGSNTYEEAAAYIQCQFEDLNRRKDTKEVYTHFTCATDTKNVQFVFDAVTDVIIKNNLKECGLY
# Sa growth inh: S. aureus growth inhibition at 42 and 30 °C, primary screen, LtaS inhibitor project, RN4220, two temperatures. OD600, 20 h, 42 °C; active compounds read low. relative growth, % (test concentration not listed). 170,000 compounds, 0.53% hits;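 active = growth at 42 °C up to 50% and 20 or more points under that at 30 °C, or under 10% at both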;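 also: 300 nL library stock went into each well; scaled to the means of positive and negative controls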
# HCMV UL50-53 inh: inhibitors of HCMV UL50-UL53 interaction, biochemical, HTRF; normalized percent inhibition; inhibition, % (concentration not given with the values); HCMV UL50-UL53 nuclear egress complex (human cytomegalovirus); AID 1918969, 2023; 190,000 compounds, 0.15% hits;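 active = both replicates at 50% or more, plus weaker picks with an unusually low signal ratio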;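 also: stock transfer was 100 nL into about 20 µL; 0% = negative control wells and 100% = wells with untagged competitor protein; inactives centre near -12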
# Sa growth inh second temp: also measured in Sa growth inh; calls as there; relative growth, %; measured here: growth at 30 °C;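 optical density after 20 h as mean of two plates; 100% = untreated growth and lower means inhibition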
# Starred values were filed as active, the others as inactive; . = no result given; & = joins results of further samples. This is a random part of the collection; about 0.82% have a hit in one of these screens.
no. | structure | HCMV UL50-53 inh | GIV Gai3 FP | Sa growth inh second temp | Sa growth inh
1 | CCNC(=O)NC1(C(=O)N2CCC(Cc3ccccc3)CC2)CCCCC1 | 3 | 100 | 85 | 92
2 | CC(C)(C)NC(=S)NCc1ccc2c(c1)OCO2 | 10 | . | 95 | 107
3 | CCNC(=S)Nc1ccc(C)cc1 | -17 | 96 | 80 | 87
4 | CN1CCN(c2nc3c(c(=O)n(C)c(=O)n3C)n2Cc2cccc(Br)c2)CC1 | -5 | 105 | . | .
5 | Cc1nc2c(-c3ccc(F)cc3)c(C)nn2c(C)c1CCC(=O)NCc1ccc(Cl)cc1 | -17 | 102 | 93 | 93
6 | CCC(=O)NCC(c1ccco1)N1CCc2ccccc21 (centres undefined) | -27 | 102 | 79 | 91
7 | O=C(Nc1ccccc1)c1nnc(COCC(=O)N2CCN(C3CCCCC3)CC2)s1 | -38 | 108 | . | .
8 | Clc1nc(NCCN2CCOCC2)nc(Nc2ccc(I)cc2)n1 | -2 | . | 89 | 103
9 | CCN(CC)C(=O)c1cc2sccc2n1Cc1ccc(F)cc1 | 4 | 104 | 66 | 90
10 | CCOc1ccccc1NC(=O)c1cccc(Cl)c1 | -6 | 98 | 75 | 90
11 | CN(C)CCC(c1ccc(Br)cc1)c1ccccn1 (centres undefined) | -10&-7&-10&-84&-17&-17 | 99 | 94 | 103
12 | CCOc1ccc(NC(=O)C(CC)Sc2nnc(-c3cc(C)ccc3NC(C)=O)c(=O)[nH]2)cc1 (centres undefined) | -30 | 103 | . | .
13 | O=C(CN(Cc1ccco1)C(=O)/C=C/c1ccco1)Nc1ccccc1Br | 1 | . | 99 | 104
14 | CC1(C(=O)NC2CCCCC2)Cn2c(cc3sccc32)C(=O)N1C1CCCC1 (centres undefined) | -17 | 101 | . | .
15 | CCOC(=O)c1c(C)n(C2CCCCC2)c2ccc(OCC(N)=O)cc12 | 4 | 100 | 64 | 89
16 | Cc1c(CNC2CCCCCC2)c(C(=O)O)c(C)n1Cc1ccc(F)cc1 | -18 | 105 | 96 | 111
17 | C=CCNc1nnc(Cl)c2ccccc12 | -38 | 108 | 72 | 93
18 | CCCc1nc2nc(C)c(NS(=O)(=O)c3ccc(C)c(C)c3)c(=O)n2[nH]1 | 4 | 109 | 90 | 96
19 | O=CN1CCN(C(=O)c2ccc(F)cc2)CC1 | -16 | 98 | 99 | 97
20 | COC(=O)c1sc2ccccc2c1C(=O)OC | -42 | 99 | 75 | 84
21 | O=C(CSc1nc2c(oc3ccccc32)c(=O)n1-c1ccccc1)Nc1ccccc1 | -14 | 98 | 86 | 106
22 | CCCn1ccc2c(OCC(=O)NCc3ccccc3Cl)cccc2c1=O | . | 105 | 96 | 116
23 | O=C(c1c(F)cccc1F)N1CC(OCc2ccc(F)cc2Cl)C1 | 5 | 103 | . | .
24 | Cc1ccc(S(=O)(=O)c2nnn3c2nc(N2CCCC2)c2ccccc23)cc1 | . | 103 | 84 | 121
25 | CC(NC(=O)COc1ccccc1)C(c1ccccc1)N1CCN(C)CC1 (centres undefined) | -20 | . | 83 | 124
26 | CCOc1ccc(Nc2ncnc3onc(-c4ccc(Cl)cc4)c23)cc1 | -25 | 101 | 66 | 112
27 | Cc1cc(C)c2oc(-c3cc(N)cc(C)c3O)nc2c1 | -23 | 106 | 71 | 102
28 | CN(C)c1ccc(/C=N/NC(=O)C2SCCCS2)cc1 | -32 | . | 104 | 93
29 | CCOc1ccccc1CNCc1cccn1-c1nnc(N2CCN(c3ccccc3)CC2)s1 | . | 106 | 74 | 96
30 | COc1cccc(-c2cc(C(F)(F)F)nc(-n3cc(C)c(=O)[nH]c3=O)n2)c1 | . | 98 | 88 | 95
31 | CCC(=O)Nc1ccc(C(=O)Cn2c(=O)oc3ccccc32)cc1 | -36 | . | 90 | 84
32 | C=CCn1c(=NC(=O)CSC(C)=O)sc2ccccc21 | . | 99 | 86 | 92
33 | COc1ccc(CNC(=O)C2CCCN(S(=O)(=O)c3ccc4c(c3)CCCN4C(C)=O)C2)cc1 (centres undefined) | . | 102 | 86 | 106
34 | COCCNC(=O)c1cc2c(Cl)nc3ccc(C)cc3c2s1 | 5 | 119 | 87 | 101
35 | O=c1nc(NCCO)ccn1-c1nc(-c2ccccc2)sc1-c1ccccc1 | -59 | . | 83 | 100
36 | CCn1c(NCc2c[nH]c3ccccc23)nc2ccccc21 | -5 | 98 | 38 | 63
37 | COc1ccc(-c2nc(CCNC(=O)c3ccc(Br)o3)cs2)cc1 | . | 99 | 92 | 76
38 | CCCC(=O)N(Cc1ccc(Cl)cc1)c1nc2nc(C)c(C)c(=O)n2[nH]1 | -25 | 107 | . | .
39 | C/C=C\C(=O)Nc1cc(-c2cn3cccnc3n2)ccc1C | -23 | 101 | 92 | 95
40 | CC(C)(C)OC(=O)N1Cc2ccccc2CC1C(=O)NCCN1CCCCC1 (centres undefined) | -3 | 93 | 100 | 104

# No new results follow: an excerpt of the list.
no. | structure | HCMV UL50-53 inh | GIV Gai3 FP | Sa growth inh second temp | Sa growth inh
21 | O=C(CSc1nc2c(oc3ccccc32)c(=O)n1-c1ccccc1)Nc1ccccc1 | -14 | 98 | 86 | 106
22 | CCCn1ccc2c(OCC(=O)NCc3ccccc3Cl)cccc2c1=O | . | 105 | 96 | 116
23 | O=C(c1c(F)cccc1F)N1CC(OCc2ccc(F)cc2Cl)C1 | 5 | 103 | . | .

# Next entries follow.
no. | structure | HCMV UL50-53 inh | GIV Gai3 FP | Sa growth inh second temp | Sa growth inh
41 | CCOC(=O)c1c(NC(C)=O)c2c3c(sc2n1Cc1ccc(F)cc1Cl)CCCC3 | . | 107 | 89 | 108
42 | CN1C(=O)/C(=C/c2cn(CC(=O)N3CCOCC3)c3ccccc23)c2ccccc21 | -27 | . | 97 | 104
43 | CN(C)c1ccc(C(=O)OCC(=O)N(C2CCCCC2)C2CCCCC2)cc1 | -10 | . | 88 | 85
44 | COc1ccc(C2C3=C(CC(c4ccc(O)c(OC)c4)CC3=O)Nc3onc(C)c32)cc1 (centres undefined) | -12 | 107 | . | .
45 | Cc1ccc(CNS(=O)(=O)c2cc(Br)cc3c2N(C(=O)C2CC2)CC3)cc1 | -18 | 101 | 91 | 109
46 | Cc1ccc(Oc2ccccc2/C=C/C(=O)O)cc1 | -28 | 100 | . | .
47 | Cc1ccc(-c2nc(C3CCN(S(=O)(=O)c4ccc(C(C)(C)C)cc4)CC3)no2)cc1 | . | 97&104 | 83 | 91
48 | Cc1cccc(OCc2nc(CC(=O)Nc3ccc4c(c3)OCCO4)cs2)c1 | -14 | 108 | . | .
49 | CN(C)c1ccc(NCc2cccc(Br)c2)cc1 | . | 101 | 36 | 86
50 | Cc1ccc2c(c1)c(-c1ccccc1)c(-c1ccccc1)n2CC(O)CN1C(=O)CNC1=O (centres undefined) | . | 103 | 86 | 85
51 | COC(=O)c1cc2oc3ccccc3c2n1CC(=O)N1CCCc2ccccc21 | . | 106 | 86 | 96
52 | CCOc1ccc(N(C)S(=O)(=O)c2cc(-c3cnc(C)o3)ccc2OC)cc1 | . | 101 | 65 | 79
53 | COc1cc(Br)cc(CC2C(=O)N(C)c3ccccc32)c1OC (centres undefined) | -18 | 106 | . | .
54 | O=C(CSc1ncnc2c1oc1ccccc12)c1cc2c3c(c1)CC(=O)N3CCC2 | 16 | . | 88 | 89
55 | COc1cccc(N2CCN(C(=O)C3CCCN(c4nc5ncccc5n5cccc45)C3)CC2)c1 (centres undefined) | -6 | 104 | . | .
56 | O=C(CSc1n[nH]c(=O)[nH]c1=O)Nc1ccc(Br)cc1Br | -10 | . | 106 | 92
57 | CC1SC(/N=C/c2ccc(F)cc2)=NNC1=O (centres undefined) | -6 | . | 91 | 126
58 | O=C(COc1ccc(Br)cc1)NCC1CCCO1 (centres undefined) | . | 105 | 102 | 119
59 | Cc1[nH]c(C(=O)N2CCN(c3cccc(Cl)c3)CC2)c(C)c1S(=O)(=O)N1CCC(C)CC1 | -4 | 107 | . | .
60 | C1=CCC(CN2CCNCC2)CC1 (centres undefined) | -17 | 99 | 89 | 109

# Random excerpt: 4 records from the list, in no set order.
no. | structure | HCMV UL50-53 inh | GIV Gai3 FP | Sa growth inh second temp | Sa growth inh
59 | Cc1[nH]c(C(=O)N2CCN(c3cccc(Cl)c3)CC2)c(C)c1S(=O)(=O)N1CCC(C)CC1 | -4 | 107 | . | .
41 | CCOC(=O)c1c(NC(C)=O)c2c3c(sc2n1Cc1ccc(F)cc1Cl)CCCC3 | . | 107 | 89 | 108
55 | COc1cccc(N2CCN(C(=O)C3CCCN(c4nc5ncccc5n5cccc45)C3)CC2)c1 (centres undefined) | -6 | 104 | . | .
57 | CC1SC(/N=C/c2ccc(F)cc2)=NNC1=O (centres undefined) | -6 | . | 91 | 126

# The list continues:
no. | structure | HCMV UL50-53 inh | GIV Gai3 FP | Sa growth inh second temp | Sa growth inh
61 | Cc1cc(OCCn2cc(C(=O)c3cccs3)c3ccccc32)ccc1Cl | 18 | 98 | 101 | 115
62 | COc1ccc(-c2n[nH]c(C)c2Oc2ccccc2)c(O)c1 | -4 | . | 74 | 81
63 | Cc1ccccc1NC(=O)c1c(C)oc2ccc(O)c(CN3CCC(C)CC3)c12 | -22 | 99 | 84 | 92
64 | Cc1c(C(=O)NCc2ccccc2Cl)sc2nc3n(c(=O)c12)CCC3 | 7 | 104 | 103 | 100
65 | O=C(CSc1nc2c(c(=O)n1-c1ccc(F)cc1)SCC2)Nc1ccc(F)cc1 | -15 | 104 | 97 | 106
66 | CCN(CC)C(=O)Cn1ncc2c3ccccc3n(Cc3ccccc3)c2c1=O | 3 | 98 | 88 | 97
67 | CCc1nc2nc(C)cc(Nc3ccc(OC)cc3OC)n2n1 | -2 | 107 | 90 | 97
68 | Cc1ccc(-n2c3c(cc(C(=O)NCc4ccco4)c2=O)C(=O)CCC3)cc1 | 2 | 103 | 88 | 117
69 | COc1ccc(CC(=O)Nc2cccc(-c3nc4cc5ccccc5cc4[nH]3)c2)cc1 | . | 99 | 78 | 89
70 | Cc1ccc(-c2noc(-c3cccnc3NCc3ccc(Cl)cc3)n2)cc1 | -3 | 102 | 90 | 103
71 | CC1CCN(c2nc3ccc(C(=O)N4CCN(c5ccccc5)CC4)cc3s2)CC1 | 4 | 107 | 104 | 93
72 | Cc1ccc(Nc2nc(C)cc(C)n2)c(Br)c1 | -9 | . | 87 | 83
73 | Cc1ccc(S(=O)(=O)Nc2c(C)nc3nc(C)[nH]n3c2=O)c(C)c1 | 0 | 104 | 94 | 96
74 | CC(CCc1ccccc1)Nc1cc(C(C)C)nc2nc(-c3cccnc3)nn12 (centres undefined) | 2 | 101 | . | .
75 | COc1cccc(CNC(=O)C(Cc2ccccc2)NS(=O)(=O)c2ccc3c(c2)oc(=O)n3C)c1 (centres undefined) | -13 | 99 | 66 | 107
76 | O=C(O)Cn1nc(-c2ccccc2)c2ccccc21 | -4 | 97 | 93 | 91
77 | O=C(CN1C(=O)CSc2ccc(S(=O)(=O)N3CCCC3)cc21)Nc1cccc(Cl)c1 | . | 105 | 82 | 116
78 | Cc1cccc(CNC(=O)c2ccc3c(c2)c(C)c(C)n3Cc2ccccc2)c1 | . | 109 | 98 | 139
79 | Cc1ccc(NC(=O)COC(=O)c2ccc3c(=O)[nH]c(CN4CCOCC4)nc3c2)cc1C | -14 | . | 70 | 73
80 | CC(C)(C)C(=O)Cn1c(=O)n(Cc2ccco2)c(=O)c2ccc(C(=O)NC3CCCC3)cc21 | 1 | 97 | 91 | 114
81 | COC(=O)NCCOc1ccc(C)cc1 | -2 | . | 106 | 99
82 | C=CCn1c(NCc2ccccc2C)nc2ccccc21 | -5 | 107 | 87 | 109
83 | Cc1ccc(OCCSc2nc3ncnc(N)c3[nH]2)c(C(C)C)c1 | 10 | 98&107 | . | .
84 | CC12CCC3C(C1)C(C(=O)O2)C(=O)OC3(C)C (centres undefined) | -3 | 100 | 93 | 98
85 | Cc1cc(NC(=O)CSc2nnc(-c3ccco3)o2)no1 | . | 98 | 88 | 110
86 | CCOC(=O)c1cc2n(n1)CC(C)(C(=O)NC1CCC(C)CC1)N(c1ccc(Cl)cc1)C2=O (centres undefined) | 0 | 99 | . | .
87 | CN(C)S(=O)(=O)c1ccc(C(=O)N2C(=O)c3cccc(N)c3C2=O)cc1 | -52 | . | 94 | 77

# Just GIV Gai3 FP, HCMV UL50-53 inh and Sa growth inh second temp, for some of the entries so far:
no. | mol | GIV Gai3 FP | HCMV UL50-53 inh | Sa growth inh second temp
82 | C=CCn1c(NCc2ccccc2C)nc2ccccc21 | 107 | -5 | 87
81 | COC(=O)NCCOc1ccc(C)cc1 | . | -2 | 106
85 | Cc1cc(NC(=O)CSc2nnc(-c3ccco3)o2)no1 | 98 | . | 88
84 | CC12CCC3C(C1)C(C(=O)O2)C(=O)OC3(C)C (centres undefined) | 100 | -3 | 93
86 | CCOC(=O)c1cc2n(n1)CC(C)(C(=O)NC1CCC(C)CC1)N(c1ccc(Cl)cc1)C2=O (centres undefined) | 99 | 0 | .

# Source: PubChem
